# Source: PubChem BioAssay
# BJeLR lethal = kills HRASV12-expressing BJeLR cells; AID 1554; BJeLR (HRASV12) viability, CellTiter-Glo ATP luminescence, 48 h; reference of the scale not given here; actives 0.17% (n = 300,000); inhibition, % (concentration not given with the values);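 active = replicate mean above 50%; inconclusive = above 50% but judged a plate artefact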;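 note: 50 nL library stock added to about 25 µL; numbers are from one replicate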
# RN4220 kill = kills Staphylococcus aureus RN4220; inhibition, % (no concentration beside the values); S. aureus RN4220 growth, OD600, 16 h; AID 1259311; actives 0.33% (n = 330,000);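 active = z-score of -3 or lower and OD600 up to 0.18 on both plates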;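 note: plate controls were untreated cells for no effect and reference antibiotic for full effect; stock transfer was 100 nL into about 80 µL; one replicate is shown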
# Mtb hypoxia rep = reduces hypoxia-regulated biosensor signal in M. tuberculosis; actives 0.1% (n = 300,000); AID 1159583; M. tuberculosis hypoxia-regulated fluorescent reporter, fluorescence; fluorescence inhibition, % (test concentration not listed);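 active = 35 to 45% if threefold the growth effect, above 45% if 1.5-fold the growth effect; inactive = the rest, general growth blockers included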;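 note: wells of about 50 µL received 100 nL stock; 0% = vehicle wells and 100% = reference inhibitor wells; whole bacteria with a GFP reporter of the hypoxia response; strong numbers were not always called active; many hits fall short of the cut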
# Sa ugtP lethal = kills S. aureus RN4220 lacking UgtP | S. aureus RN4220 ugtP deletion, OD600 growth, 16 h; some inactives read as strong as hits | growth inhibition, % (test concentration not listed) | actives 0.54% (n = 330,000);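 active = z-score under -3 and OD600 up to 0.15 on both plates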;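 note: plate controls were untreated wells for no effect and antibiotic for full effect; wells of about 80 µL received 100 nL stock; the first replicate is given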
# PrP UTR inh = suppresses PrP 5' UTR mRNA reporter expression. cell-based PrP 5' UTR mRNA reporter, plate reader. actives 0.35% (n = 340,000). inhibition, % (no concentration beside the values);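 active = every replicate at 50% or more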;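 note: 0 = median of the neutral control wells; tested in H4 reporter cells; numbers are from one replicate; inactives centre near -14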
# Bead autofluor = flagged as autofluorescent in microsphere protease counterscreen; compound autofluorescence counterscreen, microsphere flow cytometry; hits give high values; fluorescence intensity (concentration not given with the values); actives 3.1% (n = 360,000); AID 624483;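 active = at least 3 SD above the mean of all compounds, about 16000 in these data; inconclusive = too few beads counted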;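 note: 100 nL of 1 mM stock went into each well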
# Mtb hypoxia rep growth = second read-out of Mtb hypoxia rep, no call of its own (marks repeat the call); growth inhibition, %; measured here: M. tuberculosis growth (absorbance);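 0% = vehicle and 100% = reference antibiotic; read after six days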
# The depositor's hits bear a star; ? = inconclusive; . = no result given.
SMILES,BJeLR lethal,RN4220 kill,Mtb hypoxia rep,Mtb hypoxia rep growth,Sa ugtP lethal,PrP UTR inh,Bead autofluor
COc1ccccc1C(=O)NC(CCSC)C(=O)Nc1ccc(C)c(S(=O)(=O)N2CCOCC2)c1 (stereo unspecified),.,-2.3,3,6,-6,.,5228
O=C(N/N=C/c1cc([N+](=O)[O-])ccc1N1CCCCCC1)c1ccccn1,-2,.,.,.,.,-24,2529
O=C(CCC(=O)OCC(=O)c1ccccc1)Nc1cccc2cccnc12,3,4.2,9,-11,10,-11,9177
CCN(CC)Cc1c(O)ccc2c(=O)c(Oc3ccccc3OC)c(C)oc12,-13,2.3,5,-1,3,-7,3700
Cc1ccc(OC(=O)c2ccc3nc(C)sc3c2)cc1,6,5.5,6,1,2,.,.
CC(C)(C)C(=O)Cn1c(NCCCO)nc2ccccc21,2,-4.6,.,.,0,-10,4835
COc1cc(NC(=O)CN2C(=O)NC(C)(c3ccc(OC(F)F)cc3)C2=O)cc(OC)c1OC (stereo unspecified),2,-1.4,12,-2,-1,-7,3819
Cc1[nH]nc2c1C(c1cccs1)C(C#N)=C(N)O2 (stereo unspecified),-3,6.7,-3,3,0,-6,4613
CC(=O)Nc1nc(C)c(CCCOc2ccc([N+](=O)[O-])cc2)c(=O)[nH]1,-1,1.7,14,3,9,-11,4174
O=C(Cc1ccccc1)Oc1ccc(N2C(=O)C3CCCCC3C2=O)cc1 (stereo unspecified),0,3.9,-85,-8,5,-14,9130
CCOC(=O)CNC(=O)COc1coc(CN2CCN(c3ccc(F)cc3)CC2)cc1=O,11,4.4,-2,0,13,-10,5975
COC(=O)CCn1nnc(-c2ccc(C)cc2)n1,8,6.6,4,7,2,-21,9895
CCOc1cc(/C=N/NC(=O)c2cccc([N+](=O)[O-])c2)ccc1OS(=O)(=O)c1ccccc1,8,.,.,.,.,-8,3963
Cc1nn(CC(=O)Nc2ccccn2)c(C)c1Br,0,4.6,5,3,4,-7,2436
Cc1nc2c3cnn(-c4ccccc4)c3ncn2n1,7,27,-3,12,-11,-25,?
Cc1ccc(N(CCC(=O)N2CCOCC2)S(=O)(=O)c2ccccc2)cc1,.,4.2,-8,-5,-6,1,5821
O=C(COC(=O)CCS(=O)(=O)c1ccccc1)Nc1ccc(N2CCCCC2)cc1,.,1.4,-8,5,0,1,8229
CN(C(=O)CSc1ccc(S(=O)(=O)N2CCCCC2)cn1)c1ccccc1,.,2.9,6,7,9,-12,8292
COc1ccc(-c2sc(Nc3ccc(F)c(F)c3F)nc2CCC(=O)NN)cc1,0,-6.2,12,-4,-10,-26,3657
Cn1c(=O)c(=O)n(C)c2cc(S(=O)(=O)CCC(=O)Nc3c(F)c(F)c(F)c(F)c3F)ccc21,1,-2.3,-7,-3,-5,-15,5277

# Complete entries as entered above:
# Cc1nc2c3cnn(-c4ccccc4)c3ncn2n1 in the list: BJeLR lethal: 7; RN4220 kill: 27; Mtb hypoxia rep: -3; Mtb hypoxia rep growth: 12; Sa ugtP lethal: -11; PrP UTR inh: -25; Bead autofluor: ?
# CCOC(=O)CNC(=O)COc1coc(CN2CCN(c3ccc(F)cc3)CC2)cc1=O in the list: BJeLR lethal: 11; RN4220 kill: 4.4; Mtb hypoxia rep: -2; Mtb hypoxia rep growth: 0; Sa ugtP lethal: 13; PrP UTR inh: -10; Bead autofluor: 5975
# CN(C(=O)CSc1ccc(S(=O)(=O)N2CCCCC2)cn1)c1ccccc1 in the list: BJeLR lethal: .; RN4220 kill: 2.9; Mtb hypoxia rep: 6; Mtb hypoxia rep growth: 7; Sa ugtP lethal: 9; PrP UTR inh: -12; Bead autofluor: 8292

# Remaining list, next part
SMILES,BJeLR lethal,RN4220 kill,Mtb hypoxia rep,Mtb hypoxia rep growth,Sa ugtP lethal,PrP UTR inh,Bead autofluor
OCCN=c1cc(-c2ccccc2)oc2ccc(Cl)cc12,-4,-8.2,24,8,-1,-66,2450
O=C(NC(NC(=S)Nc1cc(Cl)ccc1Cl)C(Cl)(Cl)Cl)c1ccco1 (stereo unspecified),-5,-2.0,2,8,-41,-12,7511
O=[N+]([O-])c1cncc([N+](=O)[O-])c1Nc1ccccc1Cl,3,55,6,17,72,-19,2193
O=C1NC(=Nc2ccccc2)S/C1=C\c1cccs1,-3,0.7,5,4,-15,-40,5289
Cc1ccc(S(=O)(=O)N2CCC(NC(=O)OC(C)C)CC2)cc1,4,5.9,13,0,-2,-2,4548
Cc1ccc(NC(=S)N2CCn3cccc3C2c2cccnc2)cc1 (stereo unspecified),-8,0.7,20,-5,2,-7,2404
O=C(CSc1ccc2nnc(CCNC(=O)c3ccccc3)n2n1)NCc1ccco1,11,-1.3,4,1,4,-25,5519
CCN(CC(=O)Nc1ccc(NC(C)=O)cc1)C(=O)c1ccc(=O)n(C)n1,.,2.0,11,-3,0,-46,7887
CC1CCN(S(=O)(=O)c2ccc3c(c2)c(=O)c(C(=O)N2CCCCC2)cn3C)CC1,-1,3.6,2,7,-1,-10,9003
CCN(CC)c1ccc(CNC(=O)CC(C)=NNC(=O)COc2ccc(C)cc2Br)cc1,.,12,0,-4,-8,.,.
CC(C)(C)c1cc(Cl)ccc1OCCn1ccnc1,-10,-6.7,22,13,-3,-10,.
Cc1nc2ncccn2c1-c1csc(Nc2ccc(N(C)C)cc2)n1,35,-1.5,-3,5,-2,60*,2790
CCc1cc2cc(C)cc(C)c2nc1SCC(=O)NNC(=O)c1ccco1,-2,-3.2,-6,2,-4,-4,2275
CS(=O)(=O)Nc1ccc(Cc2ccc(NS(C)(=O)=O)cc2)cc1,4,1.9,3,6,0,-9,20871*
CC(C)C(NC(=O)C(Cc1ccccc1)NC(=O)OCc1ccccc1)C(=O)O (stereo unspecified),4,0.7,-1,-2,2,-11,2011
Cc1cc(C)cc(OCC(=O)NCCc2nc3ccccc3[nH]2)c1,-3,-4.0,0,0,5,-20,5372
CCCC(=O)Nc1ccc(NC(=O)c2ccccc2OC)cn1,0,6.0,.,.,8,-20,4677
O=C(Nc1ccc2c(c1)OCCO2)c1cnccn1,-5,6.0,10,9,16,-13,5364
CC(C)(C)NC(=O)NC(=O)CN1CCN(c2cccc(Cl)c2)CC1,17,6.3,-1,3,11,-10,5561
CC(=NO)C(C)(C)Nc1ccc(Br)cc1,.,2.6,7,-1,-3,.,.

# Results in Sa ugtP lethal and Mtb hypoxia rep, for two of the compounds above:
Molecule | Sa ugtP lethal | Mtb hypoxia rep
CCc1cc2cc(C)cc(C)c2nc1SCC(=O)NNC(=O)c1ccco1 | -4 | -6
CS(=O)(=O)Nc1ccc(Cc2ccc(NS(C)(=O)=O)cc2)cc1 | 0 | 3

# The list goes on.
SMILES,BJeLR lethal,RN4220 kill,Mtb hypoxia rep,Mtb hypoxia rep growth,Sa ugtP lethal,PrP UTR inh,Bead autofluor
CC(=O)c1sc(N/N=C\c2cccc(Br)c2)nc1C,-2,.,.,.,.,-39,2166
O=C(CCn1c(=O)oc2ccccc21)N1CCOCC1,-2,1.1,-1,-1,0,-5,6084
CC(=O)N1c2ccc(S(=O)(=O)N3CCC(C(=O)Nc4cccc(C)c4C)CC3)cc2CC1C (stereo unspecified),5,-1.8,7,4,-3,-3,5340
O=C(COc1ncnc2ccccc12)N1CCN(S(=O)(=O)c2ccc(Cl)cc2)CC1,-8,2.9,4,11,-2,-18,9445
CCCC(C)NC(=O)COC(=O)c1cc(Br)c(Br)s1 (stereo unspecified),-15,5.1,11,0,4,-31,4541
CC(NC(=O)c1ccc2ccccc2n1)c1ccc(Br)cc1 (stereo unspecified),6,-5.2,6,6,10,-25,4047
O=C(CN1C(=O)C2C3C=CC(C3)C2C1=O)NCCN1CCCc2ccccc21 (stereo unspecified),-8,9.3,5,11,9,-9,4738
CC(C)SC1=NC(C)(C)C=C(/C=C/c2ccc(Cl)cc2Cl)N1,-10,-6.1,.,.,-7,-29,2646
CSc1cc(C)n(-c2ccccc2C)c(=S)c1C(C)=O,4,-0.6,.,.,-6,-19,2605
CCCCCC1C/C(=N\O)C=C(C)C1C(=O)OC (stereo unspecified),0,.,.,.,.,-17,4497
C/C=C(\C)C(=O)NCCN1C2=NC[C@H](C)N2C[C@@H]1Cc1ccc(OC)cc1,-4,.,.,.,.,-9,4377
CCOC(=O)C1(Cc2ccc(Cl)cc2)CCN(Cc2cn(CC)nc2C)CC1,3,2.7,2,8,7,4,4269
CC(=O)Nc1ccc(S(=O)(=O)NC(C)c2ccccc2)cc1 (stereo unspecified),0,4.9,9,-5,12,-12,3093
CC1CCCC(NC(=O)CCn2c(=S)oc3ccccc32)C1C (stereo unspecified),-11,7.6,14,-9,7,-26,4254
O=C(NCc1ccccn1)c1cc(-c2ccc(-c3ccccc3)cc2)nc2ccccc12,21,-7.3,7,8,-3,-33,2735
O=C(/C=C/c1ccco1)NC(=S)Nc1nc(-c2ccc3ccccc3c2)cs1,3,.,.,.,.,-81,9574
COc1cc2c(cc1OC)CN(C(=S)Nc1cccc(Cl)c1C)CC2,-1,0.7,-2,-6,7,-4,4348
Cc1cc(Br)ccc1SCC(=O)OCC(=O)Nc1ccc2[nH]c(=O)[nH]c2c1,.,3.2,7,0,3,-6,3972
CCCCn1c(N)c(N(CC(C)C)C(=O)CN2C(=O)NC3(CCC(C(C)(C)CC)CC3)C2=O)c(=O)[nH]c1=O (stereo unspecified),.,1.4,-23,2,-4,-4,6166
CCN(CC)C(=O)c1cccc(NC(=O)CCc2nc3sc4c(c3c(=O)[nH]2)CCCC4)c1,.,-3.4,-1,16,-3,-12,6588
Cc1cc(C)cc(OCc2nnc(SCC(=O)N3CCCCC3)o2)c1,-8,5.7,13,-5,-5,-17,3673
S=C(NCCc1ccc(Cl)cc1)NC1CC1,-2,3.0,13,5,6,-4,4633
CCc1cc(C(=O)OC)c(NC(=O)C2CC(=O)NN2Cc2ccccc2)s1 (stereo unspecified),-6,6.9,11,7,-14,-8,11516
COc1ccc(CN(C)CC2CCCN(CCc3ccccc3C)C2)cc1O (stereo unspecified),-3,1.3,0,-5,6,-12,4610
CC(Sc1nnc(Cc2ccc([N+](=O)[O-])cc2)o1)C(N)=O (stereo unspecified),-4,6.3,2,4,15,-6,9411
Cc1ccc2oc(-c3cccc(NC(=O)Cc4cccs4)c3)nc2c1,-5,0.3,-14,-2,0,-27,11491
O=C(CSc1nnc(NC(=O)c2ccccc2F)s1)NC1CCCC1,0,-2.0,0,0,5,-24,3735
COc1ccc([N+](=O)[O-])cc1NC(=O)C(C)Sc1nc(C)c(C)c(C)n1 (stereo unspecified),-3,3.1,6,7,4,-19,2434
C/C(C=NNC(=O)c1nnn(-c2nonc2N)c1CN1CCCCC1)=C\c1ccccc1,.,8.7,1,8,10,.,.
CSCc1cccc(C(=O)OC(C)C(=O)Nc2c(C)n(C)n(-c3ccccc3)c2=O)c1 (stereo unspecified),.,-0.9,12,24,3,5,3591
O=C(Nc1ccccc1Cl)NC1(C(=O)N2CCC(O)CC2)CCCCC1,3,2.1,1,-1,6,-16,4419
Cc1nnc(NC(=O)CSc2nnc(Cc3ccccc3)n2Cc2ccccc2)s1,-7,10,.,.,0,-2,2993
COC(=O)C1=C(C)N=C2SC(C#N)=C(N)N2C1c1cc(OC)c(OC)c(OC)c1 (stereo unspecified),13,-17,13,1,6,-37,3074
O=C1CSC(c2cccnc2)N1Cc1ccc(Cl)c(Cl)c1 (stereo unspecified),0,6.0,-2,5,5,-22,5752
CCCn1nnc(NC(=O)c2cccc(Cl)c2)n1,2,0.9,4,7,-1,-5,3015
O=C(OCc1cn(-c2ccc(Cl)c(Cl)c2)nn1)c1ccccc1Cl,-4,6.3,2,5,-4,-6,23071*
CCOc1ccc(C(=O)CSc2nnc(C3CC3)n2C)cc1,29,1.8,.,.,5,-14,3770
CCNC(=S)N(Cc1cc2cccc(C)c2[nH]c1=O)C1CCCC1,6,4.7,-5,1,2,16,10049
CC(=O)c1ccc(OCCCC(=O)Nc2nnc(C3CC3)s2)cc1,.,3.0,4,2,3,-16,3775
O=C(Cc1cccc(NC(=O)C2CCCN(C(=O)C3CCCC3)C2)c1)Nc1cccc(C(=O)N2CCOCC2)c1 (stereo unspecified),.,2.5,-5,2,-6,-31,3390
C(C#CCN1CCOCC1)#CCN1CCOCC1,.,5.3,12,4,13,-7,2692
COCc1c(C(=O)NN=Cc2cccnc2)nnn1-c1nonc1N,.,1.2,-5,3,4,.,.
COc1cc(NC(=S)NCCc2ccccc2)c(OC)cc1NC(=O)C(C)C,-10,3.8,0,5,6,-8,3314
C=CCNC(=O)C1CC2Cn3c(nc4cc(C)c(C)cc43)C2N1C (stereo unspecified),-4,3.0,3,4,3,-8,3738
